PTHR1 ag: activates the human parathyroid hormone receptor PTHR1. Potency, µM (series often up to 115 µM), inactives show at the top dose activation, actives largely listed as activators. Q03431. HEK293 GP2 PTHR1 cells, GloSensor cAMP luminescence, 1 h. AID 743266. 0.075% of 410,000 active; note: potency is the fitted concentration of half-maximal effect; nearly all actives have a fitted effect of over 55% in size; some results filed as inactive show a strong effect at the top dose; inactives centre near -15; many of its hits are not listed in these tables
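HEK-293-derived GP2 cells expressing PTHR1 and a GloSensor cAMP reporter, 3,000/well, plated overnight, given luciferin plus IBMX (each 0.5 mM as added) for 1 h at 37 °C, then compound for 1 h at 37 °C. Luminescence was read after 15 min at room temperature.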
IL2 activator: IL-2 activation. IL-2 activation reporter assay, cell-based qHTS; stimulated with anti-CD3/CD4/CD28 beads; in transgenic mouse T cells. activation, % (series mostly up to about 46 µM). 0.065% of 360,000 active. AID 652025; in the data active = activation above about 50%; note: 0% is about no effect
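Unstimulated transgenic mouse T cells, 750 per well, received compound and, after 60 minutes, anti-CD3/anti-CD4 bead plus anti-CD28 stimulation. EGFP and DsRed were quantified after 18 hours.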
EPAC1 antag: antagonists of human EPAC1. Potency, µM (titrated, usually from 115 µM), for inactives: at the top dose activity change, negative = inhibition, most hits filed as inhibitors. EPAC1 GEF assay, Rap1b-BODIPY-GDP exchange fluorescence. AID 720709. O95398. 0.14% of 360,000 active;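 note: potency is the fitted concentration of half-maximal effect; plate controls were vehicle for no effect and positive control for full effect; nearly all actives have a fitted effect of over 50% in size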
Target sequence (O95398 whole entry, looked up): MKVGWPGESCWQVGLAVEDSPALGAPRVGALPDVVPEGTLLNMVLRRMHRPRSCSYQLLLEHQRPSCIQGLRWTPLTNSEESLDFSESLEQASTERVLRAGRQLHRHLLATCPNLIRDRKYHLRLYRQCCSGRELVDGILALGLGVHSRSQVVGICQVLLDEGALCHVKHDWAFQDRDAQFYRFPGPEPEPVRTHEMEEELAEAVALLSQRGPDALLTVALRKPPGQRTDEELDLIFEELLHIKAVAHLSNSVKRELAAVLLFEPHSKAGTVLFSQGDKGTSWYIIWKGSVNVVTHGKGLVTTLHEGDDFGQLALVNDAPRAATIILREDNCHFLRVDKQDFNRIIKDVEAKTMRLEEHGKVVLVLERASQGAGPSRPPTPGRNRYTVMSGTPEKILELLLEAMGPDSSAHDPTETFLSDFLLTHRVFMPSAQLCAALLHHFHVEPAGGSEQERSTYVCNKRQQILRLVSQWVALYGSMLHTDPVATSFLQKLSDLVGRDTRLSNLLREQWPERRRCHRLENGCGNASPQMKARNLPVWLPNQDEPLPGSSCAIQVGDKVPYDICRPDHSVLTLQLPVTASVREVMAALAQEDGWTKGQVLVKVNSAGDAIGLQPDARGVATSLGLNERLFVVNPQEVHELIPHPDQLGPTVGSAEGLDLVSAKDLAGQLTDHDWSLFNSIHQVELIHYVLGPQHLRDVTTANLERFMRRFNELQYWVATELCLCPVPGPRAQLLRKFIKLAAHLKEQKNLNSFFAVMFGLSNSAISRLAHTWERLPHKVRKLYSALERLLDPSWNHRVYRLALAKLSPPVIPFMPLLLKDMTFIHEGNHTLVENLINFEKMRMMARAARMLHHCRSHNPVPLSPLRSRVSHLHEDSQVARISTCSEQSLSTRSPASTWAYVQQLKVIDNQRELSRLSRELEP
EPAC1 agonist: agonists of human EPAC1; O95398; Potency, µM (doses to about 154 µM), without a hit: top-dose activation, actives largely listed as activators; EPAC1 agonist qHTS, biochemical assay; response scale: 100% = response to 6.5 mM cAMP; AID 720707; 0.073% of 360,000 active; note: potency is the fitted concentration of half-maximal effect; nearly all actives have a fitted effect of over 60% in size
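Nucleotide exchange by EPAC1 (100 nM) on Rap1B–BODIPY-GDP (250 nM) in the presence of 50 uM GDP is tracked fluorescently at 480/540 nm over 30 min. Signals are normalized to a 6.5 mM cAMP control.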
GLP1R ag: agonists of human GLP-1 receptor; P43220; Potency, µM (highest dose often 45.6 µM), inactives show at the top dose activation, hits mostly activators; 0.007% of 380,000 active; HEK293 GLP-1R CRE-luciferase, luminescence, 4-6 h; cells express a hypersensitive GLP-1R form; note: potency is the fitted concentration of half-maximal effect; % of control where 0% means no effect
* marks the source's active call; other numbers are inactive results; i = inactive; . = no result given; [ ] = another dose, or the depositor's remark. Unless noted, calls come from the whole dose curve; as a rule, active = well fitted curve in the direction sought with a large enough effect; inconclusive = small, poorly fitted or top-dose-only effect, or another doubt; inactive = no such curve, though single readings can be large; an effect the other way counts as inactive or inconclusive. A portion of the library, so the mix of outcomes need not match the whole.

Below each compound – PTHR1 ag | IL2 activator | EPAC1 antag | EPAC1 agonist | GLP1R ag
COc1ccc(C(c2sc3nc(C)nn3c2O)N2CCc3ccccc3C2)cc1 (stereo unspecified)
  -22% | -2.7 | -15% | 6% | 0%
COc1ccc(OCc2nnc3n2N=C(c2ccccc2)C(CC(=O)O)S3)cc1 (stereo unspecified)
  0% | -3.6 | -23% | -2% | 6%
CN1/C(=C\C=[N+](C)c2ccccc2)C(C)(C)c2ccccc21
  -74%[inhibitor][57.5 µM] | -3.0 | 0% | -4% | -3%
CCN1CCN(C(=O)c2ccc(NS(=O)(=O)c3ccccc3)cc2)CC1
  i | 1.4 | 13% | 8% | 1%
COc1ccc(C2=NNC(=O)C2(C)Br)cc1 (stereo unspecified)
  i | 0.2 | -9% | 5% | 0%
NC[C@@H]1O[C@H](C23CC4CC(CC(C4)C2)C3)Cc2c1ccc(O)c2O
  -42%[inhibitor] | -0.7 | 3% | -8% | .
COc1ccc(Br)cc1C1CC(=O)N2CN(C)CSC2=C1C#N (stereo unspecified)
  i | 0.9 | -7% | -12% | 0%
CN([C@@H](Cc1ccc(OS(=O)(=O)c2cccc3cnccc23)cc1)C(=O)N1CCN(c2ccccc2)CC1)S(=O)(=O)c1cccc2cnccc12
  -11% | -0.5 | 1% | -16% | 5%
C=C(CN(C)C)C(=O)c1cc(OC)c(OC)cc1OC
  i | -0.5 | -17% | 0% | -5%
O=c1ccc2ccc(O)cc2o1
  -21% | -0.8 | 18% | -7% | 0%
COc1ccc(CC(=O)Nc2ncc([N+](=O)[O-])s2)cc1OC
  i | -2.8 | -19% | -2% | -3%
COc1cc(C2C(C#N)=C(N)Oc3cc4c(cc32)OCO4)cc(OC)c1OC (stereo unspecified)
  i | -5.7 | -20% | 1% | 24%
N#Cc1c(-c2ccc(Cl)cc2)c(-c2ccc(Cl)cc2)nn(CCO)c1=O
  -10% | -6.1 | 3% | -2% | 1%
CCC1(C)Cc2c(sc3[nH]c(=O)[nH]c(=O)c23)CS1 (stereo unspecified)
  -2% | -0.2 | 0% | -1% | -5%
CC(=O)Nc1ccc(C(=O)N2CCCC2)cc1
  i | 0.1 | 7% | -3% | -2%
O=C(Nc1ccc2[nH]ncc2c1)c1cccc(F)c1
  i | 1.4 | 0% | 4% | -4%
O=C(Nc1ccccc1)Nc1ccccc1
  -68%[inhibitor] | -0.6 | -4% | -23% | 9%
N#C/C(=C\c1ccc(O)c(O)c1)C(=O)NCc1ccccc1
  -31%[inhibitor] | 0.0 | -8% | 18% | 2%

Nothing new here: entries from further up.
Below each compound – PTHR1 ag | IL2 activator | EPAC1 antag | EPAC1 agonist | GLP1R ag
CC(=O)Nc1ccc(C(=O)N2CCCC2)cc1
  i | 0.1 | 7% | -3% | -2%
O=C(Nc1ccc2[nH]ncc2c1)c1cccc(F)c1
  i | 1.4 | 0% | 4% | -4%
O=C(Nc1ccccc1)Nc1ccccc1
  -68%[inhibitor] | -0.6 | -4% | -23% | 9%
N#C/C(=C\c1ccc(O)c(O)c1)C(=O)NCc1ccccc1
  -31%[inhibitor] | 0.0 | -8% | 18% | 2%

Ordered by heavy-atom count (ascending): 3 of the compounds above.
Below each compound – PTHR1 ag | IL2 activator | EPAC1 antag | EPAC1 agonist | GLP1R ag
O=c1ccc2ccc(O)cc2o1
  -21% | -0.8 | 18% | -7% | 0%
COc1ccc(C2=NNC(=O)C2(C)Br)cc1 (stereo unspecified)
  i | 0.2 | -9% | 5% | 0%
N#Cc1c(-c2ccc(Cl)cc2)c(-c2ccc(Cl)cc2)nn(CCO)c1=O
  -10% | -6.1 | 3% | -2% | 1%

Entries of single compounds from above. Values in the order: PTHR1 ag	IL2 activator	EPAC1 antag	EPAC1 agonist	GLP1R ag
CN([C@@H](Cc1ccc(OS(=O)(=O)c2cccc3cnccc23)cc1)C(=O)N1CCN(c2ccccc2)CC1)S(=O)(=O)c1cccc2cnccc12 is listed as -11%	-0.5	1%	-16%	5%
C=C(CN(C)C)C(=O)c1cc(OC)c(OC)cc1OC is listed as i	-0.5	-17%	0%	-5%

Compound activity deposited in PubChem BioAssay by National Center for Advancing Translational Sciences (NCATS).
